# CapD inh: blocks the Bacillus anthracis CapD enzyme; purified CapD enzyme, fluorescence intensity read-out; active compounds read low; some hits fall short of the stated cut; hit rate 0.23% among 140,000; AID 492967; z-score (test concentration not listed);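 active means z-score under -4 in either of two replicates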;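 further: stock transfer was 100 nL into about 40 µL; score is relative to mean and spread of the plate; one replicate is shown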
# AID504770: growth inhibitors of E. coli YBA685 in a screen for V. cholerae RctB (chromosome II replication) inhibitors; E. coli YBA685 rctB-dependent plasmid, OD600 growth, 3 h; active compounds read low; z-score (concentration not given with the values); hit rate 0.27% among 130,000; AID 504770;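 active means z-score under -2 on both plates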;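 further: wells of about 30 µL received 100 nL stock; score is relative to mean and SD of the test wells; the first replicate is given; strong numbers were not always called active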
# * = called active by the depositor; / = not tested or not shown; & = joins results of further samples. Outcome played no part in choosing rows; about 0.37% have a hit in one of these screens.
# Value order – CapD inh | AID504770
COc1ccc(-c2oc(/N=C/c3ccc(N(C)C)cc3)c(C#N)c2-c2ccc(OC)cc2)cc1
→ -0.38 | /
Cc1ccc2nc(NCc3cccnc3)c(C=NCc3cccnc3)c(=O)n2c1
→ 16 | -0.35
CSc1nc2ccc(NC(=O)C3COc4ccccc4O3)cc2s1 (stereo not given)
→ 0.02 | -0.3
CC(C)(C)NC(=O)Oc1noc2cc(Cl)ccc12
→ 0.35 | 1.4
Cc1cc(C)cc(N2CC(c3nc4ccccc4n3C(C)C)CC2=O)c1 (stereo not given)
→ / | 0.05
O=c1oc2ccccc2c(NCc2ccc3c(c2)OCO3)c1CN1CCCC1
→ -0.05 | 1.4
Cc1ccc2cc3cc(C(=O)Nc4cccc(Cl)c4)oc3nc2c1
→ 0.83 | 1.4
Nc1ccc2nc(SCc3nc4ccccc4c(=O)n3-c3cccc(C(F)(F)F)c3)[nH]c2c1
→ -0.22 | /
CCOC(=O)c1cc(-c2cccc([N+](=O)[O-])c2)[nH]c1Nc1ccc(C)cc1
→ -2.4 | /
CCOC(=O)c1c(C)nn(-c2ccc(NC(=O)c3ccco3)cn2)c1C
→ 2.1 | /
Cc1ccc(C2CC(O)C(C)C(c3ccc(C)cc3)N2)cc1 (stereo not given)
→ -0.17 | /
CCSc1nnc(NC(=O)CSc2nnc3c4cc(Br)ccc4n(C)c3n2)s1
→ 0.035 | /
Cc1csc(=Nc2ccc(Cl)c(Cl)c2)n1CCCN1CCCC1=O
→ / | -1.5
Cc1cc(C)nc(OC(Cc2ccnc3ccccc23)c2ccc(C(F)(F)F)cc2)n1 (stereo not given)
→ -0.14 | /
Fc1ccc(-c2nc(-c3cccnc3)ncc2-c2ccncn2)cc1
→ -1.1 | /
CCOC(=O)c1ccc(N2C(=O)CC(N3CCN(C/C=C/c4ccccc4)CC3)C2=O)cc1 (stereo not given)
→ 0.21 | -0.9
O=C(Oc1ccc2oc3c(c2c1)CCCC3)c1cccs1
→ / | 0.2
COCCCNc1nc2ccc(C)cc2n2nnnc12
→ 31 | -1.6
COC(=O)CC(=O)Nc1nc(-c2ccccc2)cc(-c2ccccc2)c1C#N
→ 18 | /
CCN1CCN(C(=O)CS(=O)Cc2nc(-c3ccc(OC)cc3)oc2C)CC1 (stereo not given)
→ 0.27 | 0.15
CN1CCc2c(OCC(=O)Nc3ccccc3)cccc2C1=O
→ 0.49 | -0.1
NC(=O)C1CCN(C(=O)/C(=C/c2ccco2)NC(=O)c2ccccc2)CC1
→ 19 | 0.8
CCC(Sc1nc2c(cc1C#N)CCCCC2)C(=O)Nc1cc(C)on1 (stereo not given)
→ 0.74 | 0.7
Cc1nnc(COC(=O)CNC(=O)c2ccc(C(F)(F)F)cc2)o1
→ / | -0.4
CC1=C(C#N)C(=O)N(CC(C)O)C(=O)/C1=C/c1ccc(-c2ccc(Cl)cc2)o1 (stereo not given)
→ 4.7 | 0.35
COc1ccc(S(=O)(=O)n2c(SCc3cccc([N+](=O)[O-])c3)nc3ccccc32)cc1
→ 0.29 | /
CCOc1cc(/C=N\NC(=O)Cn2c(-c3nonc3N)nc3ccccc32)cc(I)c1OC
→ 0.46 | -0.45
Cc1ccc(Cl)cc1N1CCN(C(=O)CCCCCn2c(=S)[nH]c3cc4c(cc3c2=O)OCO4)CC1
→ -0.075 | -0.35
CN(C)c1ccc(CNc2ccc3c(c2)ncn3-c2ccccc2)cc1
→ 3.3 | -0.05
CCc1ccccc1NC(=O)c1cc(Cl)sc1Cl
→ -0.34 | 0.9
COC(=O)C(CCCN1C(=O)c2ccccc2C1=O)(NC(C)=O)c1nn[nH]n1 (stereo not given)
→ 0.45 | 0
O=C(NCCN1CCCc2ccccc21)Nc1ccc2c(c1)OCCO2
→ 0.29 | -0.25
Nc1cc(F)ccc1N1CCCCCC1
→ / | 0.9
Nc1cc2c(cc1-n1cccc1)OCCO2
→ / | -0.2
COc1ccc2cc(Br)ccc2c1CC#N
→ -0.21 | 1.1
O=C(Cn1cnc2sc3c(c2c1=O)CCCC3)NCC(=O)N1CCN(c2ccc(F)cc2)CC1
→ -0.29 | /
Cc1cc(-c2ccc(C)c(S(=O)(=O)N3CCc4ccccc4C3)c2)on1
→ -1.5 | 1.7
Cc1cc(C)nc(NS(=O)(=O)c2ccc(NC(=O)C(C)C)cc2)n1
→ 0.005 | /
C=CCSc1nnc(CNS(=O)(=O)c2ccc(Cl)cc2)n1CC=C
→ -0.32 | /
CCCCC(C(N)=O)N1C(=O)C2C3C=CC(C3)C2C1=O (stereo not given)
→ -0.015 | -0.35
COCc1cc(C)n(CC(=O)OC)c(=O)c1C#N
→ 0.38 | -0.2
COc1ccc(CN(C)C(=O)/C=C/c2cn(CCC#N)c3ccccc23)cc1F
→ / | 0
O=C(COC(=O)c1ccccc1SCC(=O)N1CCCC1)Nc1nnc(-c2ccccc2)o1
→ / | 0.75
[O-][n+]1onc2c3nsnc3c(Br)cc21
→ 0.18 | -0.95
CCOc1ccc(-c2c(C#N)c(N)nc(SCC(=O)c3ccc(O)c(O)c3)c2C#N)cc1
→ 2 | /
O=C(Nc1ccc(C(=O)N2CCCCC2)cc1)C1CCCCC1
→ / | -0.4
O=C(O)Cc1nonc1NCn1nnc2ccccc21
→ 0.35 | -0.4
COCCN(CCOC)Cc1c(O)ccc2c(=O)c(-c3ccc(OC)c(OC)c3)c(C(F)(F)F)oc12
→ 0.41 | /
COc1ccc(NC2CC(=O)N(Cc3ccccc3)C2=O)cc1 (stereo not given)
→ 0.27 | 0.95
CCOC(=S)Nc1ccc(OC(F)(F)F)cc1
→ 0.69 | -0.05
CN1C(=O)/C(=C/c2ccco2)SC1=Nc1cccc(C(=O)O)c1
→ / | 0.3
Cc1nc(C(F)(F)F)ccc1C(=O)NCc1ccc2c(c1)OCO2
→ 0.035 | -0.9
CCCC(NC(=O)CN)C(=O)O (stereo not given)
→ -0.47 | /
O=C(CCC1CCCCC1)NCCC12CC3CC(CC(C3)C1)C2
→ 12 | -0.55
COC(=O)C(CC(C)C)NC(=O)c1ccc(S(C)(=O)=O)cc1 (stereo not given)
→ / | -1.4
CC(C)C(NC(=O)Cc1ccccc1)C(=O)N1CCN(c2cccc(Cl)c2)CC1 (stereo not given)
→ / | 0.15
CCC(C)(C(=O)NC1CCCC1)N(Cc1cccs1)C(C)=O (stereo not given)
→ -0.45 | -0.35
O=S(=O)(c1ccccc1)C(/C=N\O)/C=C/c1ccccc1 (stereo not given)
→ 0.24 | -0.7
COC(=O)CNc1nc(Cl)nc(Nc2ccc(I)cc2C)n1
→ 0.005 | 1.7
Cc1ccc(-c2nc(S(=O)(=O)c3ccccc3)c(SCC(N)=O)o2)cc1
→ 29 | 1.7

# Seven records picked at random from those above:
# Value order – CapD inh | AID504770
Cc1csc(=Nc2ccc(Cl)c(Cl)c2)n1CCCN1CCCC1=O
→ / | -1.5
CC1=C(C#N)C(=O)N(CC(C)O)C(=O)/C1=C/c1ccc(-c2ccc(Cl)cc2)o1 (stereo not given)
→ 4.7 | 0.35
O=S(=O)(c1ccccc1)C(/C=N\O)/C=C/c1ccccc1 (stereo not given)
→ 0.24 | -0.7
Cc1cc(C)nc(NS(=O)(=O)c2ccc(NC(=O)C(C)C)cc2)n1
→ 0.005 | /
Nc1cc2c(cc1-n1cccc1)OCCO2
→ / | -0.2
COc1ccc2cc(Br)ccc2c1CC#N
→ -0.21 | 1.1
CCC(Sc1nc2c(cc1C#N)CCCCC2)C(=O)Nc1cc(C)on1 (stereo not given)
→ 0.74 | 0.7

# Additional records.
# Value order – CapD inh | AID504770
CN1CCN(S(=O)(=O)c2ccc3[nH]cc(C(=O)O)c(=O)c3c2)CC1
→ 4.2 | /
CCOC(=O)C1=CN(Cc2ccc(OC)cc2)C=C(C(=O)OCC)C1c1ccc(OCC)c(OC)c1
→ 58 | /
CCCCn1c(O)c(N=NC(=O)c2ccccc2)c2ccccc21
→ / | 0.15
O=C(c1ccccc1)c1cn(CCCOc2ccccc2)c2ccccc12
→ 0.07 | 0.45
CSc1sc(Cl)c2c1C(=O)CCC2
→ -0.63 | 0.25
CC1CC(C)CN(Cc2cn3c(-c4ccc(Br)cc4)nnc3s2)C1 (stereo not given)
→ / | -1.1
CCOc1cc(C2C3=C(CC(C)(C)CC3=O)OC3=C2C(=O)CC(C)(C)C3)ccc1OCc1ccccc1F
→ -0.18 | /
CCCCc1ccc(-n2c(-c3ccc(F)cc3)coc2=O)cc1
→ 0.25 | -0.25
O=C(c1ccc(F)cc1)C1CCN(C(=O)NC2CCCCC2)CC1
→ / | 0.5
CS(=O)(=O)c1ccccc1
→ 0.01 | -0.3
C#CCn1c(=NC(=O)CN2C(=O)CCC2=O)sc2c3ccccc3ccc21
→ / | 0.2
Cc1cc(-c2cccc(S(=O)(=O)N3CCOCC3)c2)n2c(nc3ccccc32)c1C#N
→ / | 0.2
COc1ccc(-n2c(SCCC#N)nc3ccccc32)cc1
→ / | -2.9
COc1ccc(C(=O)Nc2ccc(S(=O)(=O)N3CCCCC3)cc2)cc1
→ -0.1 | /
O=C(Nc1ccccc1N1CCOCC1)c1cccc(C(F)(F)F)c1
→ -0.97 | /
COc1cc(/C=C2/SC(=Nc3ccccc3)NC2=O)cc(Cl)c1O
→ 0.045 | /
CCc1ccc2occ(CC(=O)Nc3ccc(C(=O)OC)cc3)c2c1
→ -0.42 | 0.1
C=CCNC(=O)c1cc(C)no1
→ -1 | -0.6
O=C1CN(c2ncnc3c2cnn3-c2ccc(Cl)cc2)CC(=O)N1CCc1ccccc1
→ -0.32 | /
C=CCn1c(SCc2nc3ccccc3[nH]2)nc2sc3c(c2c1=O)CCCC3
→ -0.81 | /
CC1(C(=O)N2CCN(c3cccc4[nH]ccc34)CC2)CCC(C(=O)O)C1(C)C (stereo not given)
→ 1.1 | /
COC(=O)c1ccc(C2C3=C(CC(C)(C)CC3=O)Nc3ccccc3N2C(=O)C(C)C)cc1 (stereo not given)
→ 0.33 | 0.7
S=C=Nc1ccc(Oc2ccccc2)cc1
→ / | 1.1
O=C(O)/C=C/C(=O)Nc1ccccc1
→ -0.46 | -0.55
CC1=CC(=O)C(C(=O)/C=C/c2ccc3c(c2)OCO3)C(=O)O1 (stereo not given)
→ / | -0.5
CC(=O)Nc1cc(C(=O)O)ccc1S(=O)(=O)c1ccc(Cl)cc1
→ 0.21 | -1.3
CCN=C1S/C(=C/c2ccc(OCC(=O)O)c(Cl)c2)C(=O)N1CC
→ -1.4 | 1.9
O=S(=O)(NC1CCN(Cc2ccccc2)CC1)c1ccc(F)cc1F
→ -1.3 | /
CCOC(=O)C1=C(CSc2nc3scc(-c4cccs4)c3c(=O)[nH]2)NC(=O)NC1C (stereo not given)
→ / | -0.1
Cc1ccc(S(=O)(=O)N(Cc2ccco2)c2nc3ccccc3nc2Cl)cc1
→ / | -0.55
O=C(COc1ccc(Br)cc1)N/N=C1\SCC(=O)N1c1ccc(F)cc1
→ / | 1.8
Cc1ccc2oc(=O)c3cc(C(=O)N4CCN(c5ccc(F)cc5)CC4)sc3c2c1
→ 31 | -0.65
CCN(CC)Cc1nc2ccccc2c(=O)n1-c1ccc(F)cc1
→ -0.16 | -0.9
CCN(CC)c1nnc(-n2cccc2)s1
→ -0.96 | 0.35
Cc1ccc(Cl)cc1N1CCN(C(=O)c2ccc3c(=O)n4nc(Nc5ccccc5)sc4nc3c2)CC1
→ -0.3 | -0.55
FC(F)(F)c1cc(NC2=NCCN=C(Nc3cc(C(F)(F)F)cc(C(F)(F)F)c3)SS2)cc(C(F)(F)F)c1
→ -0.1 | /
O=C(CCC(=O)N1CCN(c2ccc(Cl)cc2)CC1)c1ccccc1
→ -1.4 | /
CCOC(=O)c1[nH]nc(N)c1-c1cccc(OC)c1
→ 0.8 | -1.8
Cc1cc(/C=N/NC(=O)Cn2nnc(-c3ccccc3)n2)c(C)n1CC(C)C
→ / | -0.5
CCN(CC)c1ccc(C=Nc2ccc(C#N)cc2)cc1
→ -0.31 | -0.4
CCC12CC3CC(CC(Br)(C3)C1)C2
→ 0.8 | /
COc1ccc(Nc2nc(NCc3ccco3)c3ccccc3n2)cc1
→ 0.015 | /
CC(=O)O[C@@H]1[C@@H](OC(C)=O)[C@@H](OC(C)=O)CO[C@H]1C#N
→ 0.005 | /
CCOc1ccc(S(=O)(=O)N2CCCCC2)cc1-c1nc2c(C(C)(C)C)nn(C)c2c(=O)[nH]1
→ 0.92 | -0.05
Cc1ccccc1CCOC(=O)N1CCCN(c2nc3ccc(Cl)cc3s2)CC1
→ 0.025 | /
CCOC(=O)c1oc(-c2ccc(F)cc2)nc1C
→ -0.06 | -0.9
CC(C)C(NS(=O)(=O)c1cccs1)C(=O)Nc1nc(C(C)(C)C)cs1 (stereo not given)
→ -0.24 | 0.1
Cc1nnc(SCC(=O)N2CCc3ccccc32)[nH]c1=O
→ / | 0.2
c1ccc(-c2ccc(-c3ccnc4nc(N5CCOCC5)nn34)cc2)cc1
→ 4.9 | /
COc1ccc2c(c1)c(C(=O)O)c(C)n2-c1ccccc1
→ 0.96 | -0.4
COCCNC(=O)C1c2ccccc2C(=O)N(CCOC)C1c1c[nH]c2ccccc12 (stereo not given)
→ -0.06 | -0.4
Cc1ccc(C(C)C)c(Oc2cc(NC(=O)c3cnn4c3NC(c3ccc(Br)cc3)CC4C(F)(F)F)cc([N+](=O)[O-])c2)c1 (stereo not given)
→ 0.26 | /
CCCCC(C(=O)Nc1ccc(C)cc1C)N1C(=O)c2ccccc2C1=O (stereo not given)
→ -0.11 | 0.15
Clc1ccc(CSc2ncn[nH]2)cc1
→ 0.075 | 0.05&0.45
CCSCCOC(=O)C1=C(C)NC2=C(C(=O)CCC2)C1c1cc(Br)c(O)c(OC)c1 (stereo not given)
→ 13 | /
CCCCN(C)C(=O)C1CCC(=O)N(c2cc(OC)c(OC)c(OC)c2)C1c1ccc(OC)cc1 (stereo not given)
→ 0.005 | -0.45
O=C(C1c2ccccc2C(=O)N2CCc3ccccc3C12)N1CCCC1 (stereo not given)
→ 17 | -0.3
CCCN1CCC(N(C(=O)c2ccc(NC(=O)Nc3ccc(F)cc3F)cc2)C2CC2)CC1
→ -0.48 | /

# Screens (PubChem BioAssay)
